Screens deposited in PubChem BioAssay by Johns Hopkins Ion Channel Center.
KCNQ2 pot: potentiators of rat KCNQ2 potassium channel; CHO-K1 KCNQ2, FluxOR thallium flux fluorescence; stronger effect = higher value; B-score at 10 µM; actives 0.54% (n = 310,000);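 active means fluorescence ratio B-score at least 3 SD of library B-scores, with initial fluorescence B-score within 3 SD, cut at about 5.3 in these data; same plate scores as AID 2156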;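 further: B-score of peak minus minimum over baseline fluorescence ratio after K+ and Tl+ stimulus; positive B-score means potentiation of KCNQ2 with more thallium influx and brighter signal; only the inactives scoring about 0 or higher are listed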
Target sequence (O88943 whole entry, looked up): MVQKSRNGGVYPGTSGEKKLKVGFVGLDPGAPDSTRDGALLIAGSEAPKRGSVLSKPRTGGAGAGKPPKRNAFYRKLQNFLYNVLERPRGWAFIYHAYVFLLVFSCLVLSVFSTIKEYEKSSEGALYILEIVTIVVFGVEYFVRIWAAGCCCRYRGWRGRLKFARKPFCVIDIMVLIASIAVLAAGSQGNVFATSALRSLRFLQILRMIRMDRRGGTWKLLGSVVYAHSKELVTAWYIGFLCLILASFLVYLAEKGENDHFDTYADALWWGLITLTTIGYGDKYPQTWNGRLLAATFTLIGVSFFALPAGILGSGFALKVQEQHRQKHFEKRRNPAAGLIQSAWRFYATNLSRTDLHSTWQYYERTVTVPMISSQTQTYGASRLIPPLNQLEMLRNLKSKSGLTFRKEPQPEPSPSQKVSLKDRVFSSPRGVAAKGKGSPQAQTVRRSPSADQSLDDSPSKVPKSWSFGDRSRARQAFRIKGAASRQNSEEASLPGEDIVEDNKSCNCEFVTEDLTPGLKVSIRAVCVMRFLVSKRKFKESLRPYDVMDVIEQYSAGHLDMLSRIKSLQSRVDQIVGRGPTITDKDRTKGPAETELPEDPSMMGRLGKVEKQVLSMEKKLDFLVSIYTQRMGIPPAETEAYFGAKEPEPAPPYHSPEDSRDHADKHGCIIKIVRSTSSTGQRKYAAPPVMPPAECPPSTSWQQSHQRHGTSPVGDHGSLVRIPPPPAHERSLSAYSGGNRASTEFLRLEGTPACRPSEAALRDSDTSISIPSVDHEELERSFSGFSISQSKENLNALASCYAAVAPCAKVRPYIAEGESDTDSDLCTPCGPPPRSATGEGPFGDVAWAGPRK
KCNQ2 pot baseline: recorded beside KCNQ2 pot, whose call it bears; B-score; compound at 10 µM; measured here: initial fluorescence intensity artifact check;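 brightness before thallium and not channel activity; 0 = typical well and far values either way flag optical interference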
* = called active by the depositor. An excerpt (hit frequency here may not be typical).

SMILES	KCNQ2 pot	KCNQ2 pot baseline
COc1ccc(N/C(=N\c2nc(C)cc(C)n2)NC(=O)C(C)C)cc1OC	0.87	2.1
COc1cc(/C=N/NC(=O)COc2ccc([N+](=O)[O-])cc2)ccc1OCC(=O)N1CCOCC1	0.9	0.66
CCC(C(=O)NCCC1=CCCCC1)n1nc(C)c2c(C)n(-c3ccccc3)nc2c1=O (centres undefined)	0.21	-0.73
CCOC(=O)c1c(N)sc(=S)c2c1CCC2	0.31	3
CC(=O)c1c(C)[nH]c(C(=O)OCC(=O)N2CCN(S(=O)(=O)c3ccc(C)cc3C)CC2)c1C	0.84	-0.89
CCNC(=O)NC(=O)COC(=O)CCc1nc(=O)c2ccccc2n1C	0.56	-0.06
Cc1c(NS(C)(=O)=O)c(=O)n(-c2ccccc2)n1C	0.28	1.3
Cc1ccc(S(=O)(=O)N(Cc2cccc([N+](=O)[O-])c2)C(=O)N2CCN(C)CC2)cc1	0.38	-3.1
CCN(CC)Cc1c(O)ccc2c(=O)c(-c3ccc4c(c3)OCCO4)coc12	0.74	-0.43
CCCCn1c(N)c(-c2nc3ccccc3s2)c2c([N+](=O)[O-])nn(C)c(=O)c21	0.24	0.9
CCc1ccc(NC(=O)c2ccc(F)c(S(=O)(=O)NCC3COc4ccccc4O3)c2)cc1 (centres undefined)	1.1	0.19
COc1cccc(NC(=O)c2ccnc(N3CCC(C(=O)NCc4ccccc4OC)CC3)c2)c1	0.44	0.28
CC1(C)Cc2c(sc(NC(=O)C(=O)N3CCCC3)c2C(N)=O)CO1	1.9	0.08
C=CC(=O)NC(NC(=O)C=C)c1ccccc1F	0.04	0.32
CC(C)(C)n1ncc2c(=O)n(CC(=O)N3CCc4ccccc43)cnc21	0.92	-1
COc1ccc(N(CC(O)CN2CCCCC2)S(=O)(=O)c2ccc(C)cc2)cc1 (centres undefined)	0.3	-0.25
O=C(Nc1c[nH]c(=O)[nH]c1=O)c1ccc2c(c1)C(=O)N(c1cccc([N+](=O)[O-])c1)C2=O	0.71	0.95
Cc1ccc2oc(C(=O)NCc3ccccc3)cc(=O)c2c1	0.84	0.86
COc1ccc(N2C(=O)CCC(C(=O)N3CCC(C(N)=O)CC3)C2c2ccc(F)cc2)cc1 (centres undefined)	0.04	0.27
CCOc1ccc(NC(=O)CCC(=O)NNC(=O)NC2CCCCC2)cc1	1.1	-0.63
O=C(CSc1nc2ccccc2[nH]1)Nc1ccc(F)cc1	0.09	2.6
CCCCOc1ccc(CN(C)c2ncnc(N)n2)cc1	0.26	-0.2
COc1ccc(NC(=O)N/C=C/c2ccccc2)cc1	0.94	2
O=C1Nc2cc(C(=O)NCCCN3CCOCC3)ccc2S/C1=C/c1cccc(Cl)c1	1.1	-0.03
Oc1ccc(-c2csc(Nc3cccnc3)n2)cc1	1.7	0.22
Cc1cc(OCc2cc(C(=O)N(C)CC3CCOCC3)no2)cc(C)c1Cl	0.05	-0.8
Cc1ccc(S(=O)(=O)Nc2nc(C)c(NC(=O)OCCCl)s2)cc1	0.06	-0.26
CN(Cc1nc2ccccc2c(=O)[nH]1)Cc1nc2ccsc2c(=O)[nH]1	2.6	-0.64
COc1ccc(CNC(=O)Nc2ccc(C)cc2C)cc1	0.23	0.11
CC(C)CC(=O)N1CCC(O)(CS(=O)(=O)Cc2ccccc2)CC1	1.3	0.01
O=C(NCCCN1CCOCC1)c1ccc(Br)cc1Br	1.8	-1.5
COC(=O)c1ccc(CN2C(=O)NC(Cc3c[nH]c4ccccc34)C2=O)cc1 (centres undefined)	3	-0.28
Cc1cccc(C)c1NC(=O)CN	0.67	0.01
CCCCCCCC(=O)N/N=C(\C)c1ccc(N)cc1	2.1	-0.02
O=[N+]([O-])c1cc(C(F)(F)F)ccc1NCCCCNS(=O)(=O)c1ccc2ccccc2c1	0.82	-0.13
Cc1ccc(S(=O)(=O)N2CCC(C(=O)Nc3ccccc3N3CCCC3)CC2)cc1	1.8	-0.6
CCOC(=O)c1c2ccc(OCC(=O)NN)cc2n2ccccc12	0.05	1.3
CCOC(=O)Nc1ccc(S(=O)(=O)Nc2onc(C)c2C)cc1	1.5	-0.48
COc1ccc(/C=C/C(=O)c2ccc(NC(=O)c3cccs3)cc2)cc1OC	0.54	1.9
CCOc1ccccc1N1CCN(C(=O)C(F)(F)F)CC1	0.19	-0.28
O=C(CN1CCCCCC1)Nc1cc([N+](=O)[O-])ccc1Cl	0.04	-0.31
O=C(Cc1ccc(S(=O)(=O)N2CCOCC2)s1)NCC1CCCCC1	0.99	-0.07
Cc1ccc(NC(=O)c2cccnc2C(=O)Nc2ccc(C)cc2)cc1	1.1	-2.5
CCOc1ccc(C(=O)Nc2ccc(Cc3ccncc3)cc2)cc1Br	0.78	-0.04
Cc1cccc(NC(=O)CSc2ncnc3c2oc2ccccc23)c1	0.8	2.1
C=CCNC(=S)Nc1c(N)n(C)c(=O)n(C)c1=O	1.8	0.05
COc1ccc(CNC(=O)/C=C/c2ccc(OCCCF)cc2)cc1	0.14	0.15
O=C1C(CCS(=O)c2ccccc2)C(=O)N(c2ccccc2)N1c1ccccc1 (centres undefined)	0.01	-1.6
CCc1ccc(C(=O)NNc2ccc(F)cc2F)cc1	2.4	-0.3
O=C(NC(=S)N1CCOCC1)C12CCC3CC(CC(C3)C1)C2	0.99	1.9
CC1Sc2ccc(C(=O)OCc3ccccc3Cl)cc2NC1=O (centres undefined)	0.75	0.15
CCOc1ccc(C(=O)NCC(=O)N2CCN(c3ccccc3O)CC2)cc1	0.28	-0.38
CCCC(=O)Nc1c(-c2ccccc2OC)c(=O)c2ccccc2n1C	0.47	2.9
O=C(COc1ccc(Cl)cc1Cl)OCn1nnc2ccccc2c1=O	2.4	-0.87
Cc1ccc(C(=O)Nc2ccc(N3CCN(C(=O)c4ccco4)CC3)cc2)c(Cl)c1	0.78	0.97
CCOc1ccc(CC(=O)Nc2cccc(-c3ccc4nnc(C)n4n3)c2)cc1	1.3	-0.04
Cc1cc(C(=O)NNc2ccc(C(C)C)cc2)n(C(C)(C)C)n1	1.3	-0.3
Cc1ccc2c(c1C)NC(C(=O)O)C1CC=CC21 (centres undefined)	1.5	0.51
Cc1c(Cl)cccc1NC(=O)CCC(=O)NNC(=O)c1ccco1	0.06	-0.94
O=C1SC(SCc2ccccc2)=N/C1=C\c1ccc(C(=O)O)cc1	0.44	-0.01

Looked up one by one from the entries so far:
SMILES	KCNQ2 pot	KCNQ2 pot baseline
Cc1c(Cl)cccc1NC(=O)CCC(=O)NNC(=O)c1ccco1	0.06	-0.94
O=C(NC(=S)N1CCOCC1)C12CCC3CC(CC(C3)C1)C2	0.99	1.9
Cc1ccc(C(=O)Nc2ccc(N3CCN(C(=O)c4ccco4)CC3)cc2)c(Cl)c1	0.78	0.97
CCOc1ccc(CC(=O)Nc2cccc(-c3ccc4nnc(C)n4n3)c2)cc1	1.3	-0.04

Sorted by number of heavy atoms (ascending): three of the compounds above
SMILES	KCNQ2 pot	KCNQ2 pot baseline
Cc1ccc2c(c1C)NC(C(=O)O)C1CC=CC21 (centres undefined)	1.5	0.51
CCCC(=O)Nc1c(-c2ccccc2OC)c(=O)c2ccccc2n1C	0.47	2.9
O=C1C(CCS(=O)c2ccccc2)C(=O)N(c2ccccc2)N1c1ccccc1 (centres undefined)	0.01	-1.6

Additional records
SMILES	KCNQ2 pot	KCNQ2 pot baseline
O=C(Nc1ccc(N2CCN(C(=O)c3ccco3)CC2)cc1)c1ccc(Br)cc1	2.7	0.01
O=C1CC[C@@H](CN(Cc2ccccn2)Cc2nc(Cc3cccc(C(F)(F)F)c3)no2)N1	0.98	-1.1
COc1cccc(CC(NC(C)=O)C(=O)NC2CCN(S(=O)(=O)c3ccc(C)cc3)CC2)c1OC (centres undefined)	0.3	-0.26
COc1ccc2cc(C(=O)NCC3CCCO3)[nH]c2c1 (centres undefined)	1.4	0.07
CN1CCN(S(=O)(=O)c2cccc(C(=O)NCCOc3ccccc3)c2)CC1	0.89	-0.08
COc1cc(/C=N/N2C(C)CCCC2C)cc(OC)c1O (centres undefined)	0.11	0.08
CCCc1nc2ccc(NC(=O)c3cccs3)cc2c(=O)n1Cc1ccc(Cl)cc1	0.07	-1.1
CC(C)(C)NC(=O)C1CCC(CNS(=O)(=O)c2cccc3nsnc23)CC1 (centres undefined)	0.08	-1.1
CCOC(=O)c1c(C)[nH]c(C=O)c1Cc1cccc(Cl)c1	0.33	-1.2
c1ccc(-c2nc(N3CCCC3)nc3ccccc23)cc1	0.84	1.4
Cc1ccc(S(=O)(=O)N2CCN(C(=O)COC(=O)c3ccc(C(C)(C)C)cc3)CC2)c(C)c1	0.47	-0.5
COc1ccc(NC(=O)COC(=O)/C=C/c2ccc(OC)c(S(=O)(=O)N3CCOCC3)c2)cc1	0.71	-1.5
O=C(CCNC(=O)c1ccco1)Nc1ccc(F)c(Cl)c1	4.5	-0.47
Cc1nnsc1C(=O)Nc1ccc(S(=O)(=O)N2CCC(C)CC2)cc1	1	-0.83
COC(=O)N1C(=O)[C@@](c2ccccc2)(C(C)C)N1C(=O)OC	0.11	1.9
CCc1ccc(Oc2ncnc(N)c2[N+](=O)[O-])cc1	0.19	-0.03
Clc1ccc2c(NCc3ccccn3)ccnc2c1	0.93	0.03
c1ccc(CCCc2nc(-c3ccccn3)no2)cc1	1.2	-0.11
CC1Cc2cc(S(=O)(=O)N3CCN(c4ccccc4)CC3)ccc2N1C(=O)C1CC1 (centres undefined)	0.79	-1.6
CCCc1cc(=O)oc2cc(C)cc(OCC(=O)NCCCN3CCCC3=O)c12	1	-0.01
Cc1cccc(C(=O)NN(C)c2nc(-c3ccccc3)nnc2C(F)(F)F)c1	0.13	0.91
COc1ccc(NC(=O)CSc2nc3c(c(=O)n(C)c(=O)n3C)n2C)c(OC)c1	0.76	0.29
O=C1[C@@H]2CSCN2C(=O)CN1Cc1ccc(F)cc1	1	-0.38
N#CCc1nc2c3c4c(sc3ncn2n1)CCCC4	0.38	0.03
O=C(CSc1nc(-c2ccccc2)cc(C(F)(F)F)n1)c1cccc([N+](=O)[O-])c1	0.69	-0.99
CNC(=O)NC(=S)NC(=O)c1ccc(OC)cc1	0.54	-0.09
Fc1cccc(CNc2ncnc3cc(Cl)ccc23)c1F	0.41	0.05
CC1CCC(NC(=O)CCn2ccc3cc(S(=O)(=O)N4CCCC4)ccc32)CC1 (centres undefined)	0.71	0.19
O=C(CNC(=O)c1cccs1)OCC(=O)c1ccc([N+](=O)[O-])cc1	0.39	0.2
COc1cc(C(=O)NCCC(C)C)c([N+](=O)[O-])cc1OC	1.4	1.7
Cc1ccc(S(=O)(=O)Cc2ccc(C(=O)N3CCN(c4cc(C)ccc4C)CC3)o2)cc1	0.55	0.04
O=C(CN1C(=O)NC(Cc2ccccc2)C1=O)Nc1ccccc1OC(F)F (centres undefined)	1.4	1.3
Cc1cccc(N2CCN(C(=O)C3CCN(c4ncnc5c4nc4n5CCCCC4)CC3)CC2C)c1 (centres undefined)	0.03	-0.09
O=C(CCC(=O)Nc1ccc(Oc2ccccc2)cc1)NCCO	0.37	-2.1
Oc1ccc(/C=N/N2CCOCC2)c(O)c1O	1.6	-0.91
COc1cccc(NC(=O)NNC(=O)CN2C(=O)COc3ccccc32)c1	0.11	0.16
COc1ccc(-c2c(C)n([O-])c3c([n+]2=O)CCCC3)cc1	1.7	0.62
C/C(=N\NC(=O)CC1(C)OCCO1)c1cccs1	0.84	0.2
S=c1[nH]nc(Cc2ccccc2)n1-c1ccc(Cl)cc1	1.3	1.4
Cc1cc(C)c(NC(=O)COc2nc3ccccc3nc2C)c(C)c1	0.9	0.32

Sorted by value in KCNQ2 pot (ascending): 3 from the list above
mol | KCNQ2 pot | KCNQ2 pot baseline
COc1cccc(NC(=O)NNC(=O)CN2C(=O)COc3ccccc32)c1 | 0.11 | 0.16
CNC(=O)NC(=S)NC(=O)c1ccc(OC)cc1 | 0.54 | -0.09
O=C(CN1C(=O)NC(Cc2ccccc2)C1=O)Nc1ccccc1OC(F)F (centres undefined) | 1.4 | 1.3

New compounds follow:
SMILES	KCNQ2 pot	KCNQ2 pot baseline
Cc1nn2c3c(cnc2c1-c1ccc(Cl)cc1)C(=O)CC(c1ccco1)C3 (centres undefined)	0.06	-0.36
Cc1n[nH]c(C)c1Sc1ccccc1N=Cc1cc([N+](=O)[O-])ccc1O	0.39	-1.7
COc1ccccc1-n1cnnc1SCC(=O)Nc1cccnc1Cl	0.07	2
N#CC1=C(N)Oc2n[nH]c(-c3ccccc3)c2C12C(=O)Nc1ccccc12 (centres undefined)	0.04	-0.75
Clc1cncc(Cl)c1N/N=C/c1ccccc1	0.56	0.7
CC(C)(C)OC(=O)NCCCCC1=CC2=CC(=O)C(C)(O)C(=O)C2=CO1 (centres undefined)	0.19	0.91
Cc1occc1C(=O)Nc1nnc(-c2ccncc2)s1	2.5	-2.4
O=C(O)CCCNS(=O)(=O)c1ccc2ccccc2c1	2.2	-0.21
C/C(=N\NC(=O)c1cc(C(C)C)[nH]n1)c1ccncc1	0.99	0.31
CC1(C)NC(=O)N(CC(=O)OCC(=O)Nc2cccc(S(N)(=O)=O)c2)C1=O	0.95	0
O=C(NCC(=O)N1CCN(C(c2ccccc2)c2ccccc2)CC1)c1ccc(Br)o1	0.53	-0.76
CC1CCCC(C)N1C(=O)c1cc(-c2ccc3c(c2)OCO3)on1 (centres undefined)	1	-1.5
Cc1cccc(Nc2nc(N)nc(CN3CCN(c4ccc(F)cc4)CC3)n2)c1	6.9*	0.01*
O=C(NCc1ccccc1)C(=O)Nc1nccs1	1.3	0.79
CCN(CC(=O)NCc1cccs1)C(=O)c1cccc(S(=O)(=O)Nc2ccc(OC)cc2)c1	0.05	-1.1
CCOc1ccc(CCNC(=O)COC(=O)CCc2cc(OC)c(OC)c(OC)c2)cc1OCC	0.09	0.5
